AID923: qHTS Assay for Allosteric/Competitive Inhibitors of Caspase-1: Spectroscopic Profiling in AFC Spectral Region; Potency, µM (titrated, usually from 57.5 µM), inactives show at the highest dose fluorescence increase, usual class: activators; AID 923, 2007; hit rate 1.1% among 75,000; compound fluorescence, AFC spectral region (405/520 nm); almost no hit is shown here; active means well fitted activation curve with a large enough effect; inconclusive means small, poorly fitted or top-dose-only effect;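 further: potency means the concentration at half of the fitted maximal effect; 0% is about no effect; scaled to a free AFC standard on each plate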
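Titrations up to 57 uM read every 20 sec for 3 min (405/520 nm) with 50 nM caspase 1 and 5 uM Ac-WEHD-AFC, pH 7.5 HEPES buffer. Fluorescence-vs-time intercept gave baseline, scaled against on-plate AFC standard.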
Resorufin fluor: compound fluoresces in the resorufin spectral region. hit rate 0.04% among 59,000. max dye-equivalent concentration, M. AID 588. Compound fluorescence, resorufin region 547/598 nm, buffer; stronger effect = higher value; active = above 10 nM dye equivalent; inconclusive = 1 to 10 nM; inactive = 1 nM or less; a few of its hits are not listed in these tables; further: highest value over a series up to 38 µM
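Read-out: intrinsic compound fluorescence at ex 547/em 598 nm after 15 min at RT in pH 8.0 Tris (100 mM). Values expressed as resorufin-equivalent concentration from per-plate standard series.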
A647 autofl: A647 region autofluorescence | Compound fluorescence, A647 channel (570/671 nm), Tris buffer | max dye-equivalent concentration, M | 59,000 tested, under 10 active | AID 592; active means above 1 µM dye equivalent; inconclusive means 0.1 to 1 µM; inactive means 0.1 µM or less;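 further: values scaled relative to a standard on each plate; highest value over a series up to 38 µM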
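Compound fluorescence was measured in 100 mM Tris buffer, pH 8.0, after 15 min at room temperature, using 570 nm excitation and 671 nm emission filters. Signal was normalized to a per-plate Alexa 647 standard curve and expressed as dye-equivalent concentration at each compound concentration.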
TSHR ag: activates the human thyroid stimulating hormone receptor; P16473; Potency, µM (series often up to 57.1 µM), without a hit: top-dose activation, usual class: activators; AID 926; HEK293-CNG-TSHR cells (CNG channel as cAMP sensor), membrane potential dye, cAMP; hit rate 0.48% among 73,000; active = well fitted activation curve of enough size with the parental cells flat; inconclusive = any curve in the parental cells; inactive = parental cells flat and receptor cells flat or falling; further: potency means the concentration at half of the fitted maximal effect; % of control where 0% means no effect; weak receptor curves with flat parental cells got no call and are not listed
Target sequence (P16473 whole entry, looked up): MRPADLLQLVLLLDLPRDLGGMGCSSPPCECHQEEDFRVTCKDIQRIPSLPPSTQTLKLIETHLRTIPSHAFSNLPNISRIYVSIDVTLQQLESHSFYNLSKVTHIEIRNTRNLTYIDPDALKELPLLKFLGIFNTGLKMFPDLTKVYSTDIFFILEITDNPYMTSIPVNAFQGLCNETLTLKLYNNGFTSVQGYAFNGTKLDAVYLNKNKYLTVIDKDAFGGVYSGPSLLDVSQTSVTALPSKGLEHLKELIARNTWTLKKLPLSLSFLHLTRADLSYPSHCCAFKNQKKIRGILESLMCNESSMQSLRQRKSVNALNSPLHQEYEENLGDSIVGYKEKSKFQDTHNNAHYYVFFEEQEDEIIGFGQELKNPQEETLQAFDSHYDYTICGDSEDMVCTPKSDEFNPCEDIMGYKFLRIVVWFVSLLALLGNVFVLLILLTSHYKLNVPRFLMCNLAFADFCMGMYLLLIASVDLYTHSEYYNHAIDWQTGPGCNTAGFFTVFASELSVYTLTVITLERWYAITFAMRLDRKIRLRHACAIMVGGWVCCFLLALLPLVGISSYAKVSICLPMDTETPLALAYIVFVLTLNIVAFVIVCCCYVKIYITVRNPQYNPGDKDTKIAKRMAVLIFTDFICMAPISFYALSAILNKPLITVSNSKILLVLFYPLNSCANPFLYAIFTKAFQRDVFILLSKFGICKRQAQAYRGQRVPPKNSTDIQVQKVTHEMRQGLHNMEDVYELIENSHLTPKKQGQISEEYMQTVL
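HEK 293 cells stably expressing TSHR and a modified CNG channel, with CNG-only parental cells as counterscreen, were preloaded 60 min at room temperature with membrane potential dye containing 100 uM RO 20-1724. Compound exposure was 30 min, and depolarization was read as fluorescence at 590 nm.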
A488 autofl: compound autofluorescence in A488 spectral region | compound autofluorescence, A488 spectral region, dye equivalency; stronger effect = higher value | max dye equivalency, M | AID 591 | hit rate 0.1% among 59,000; active = above 10 nM dye equivalent; inconclusive = 1 to 10 nM; inactive = 1 nM or less; about half of its hits are not listed in these tables;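 further: highest value over a series up to 38 µM; compound alone in buffer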
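Compound autofluorescence was read in 100 mM Tris pH 8.0 after 15 min at room temperature, ex 480 nm/em 540 nm. Intensities were converted to A488 dye-equivalent concentration using an on-plate six-point A488 standard curve.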
Starred values were filed as active, the others as inactive; i = inactive; ? = inconclusive; nt = no result given; & = joins results of further samples; [ ] = remark or other dose. This is a subset, so the mix of outcomes need not match the whole.

SMILES | AID923 | Resorufin fluor | A647 autofl | TSHR ag | A488 autofl
COc1ccc(N2C(=O)NC3CC2(C)Oc2ccc(Cl)cc23)cc1OC (stereo not drawn) | -1.1% | i | 4e-08 | 0%[11.4 µM] | i
COc1ccccc1CNC(=O)COC(=O)c1ccc(S(=O)(=O)N2CCCC2)cc1 | -1.1% | i | 1e-09 | -3% | i
COc1ccc(NC(=O)CS(=O)CC(=O)NCc2cccc(C(F)(F)F)c2)cc1 (stereo not drawn) | 1.1% | i | 2e-08 | 1% | i
N/C(CC/C(N)=N/O)=N\O | 4.1%[11.5 µM] | i | 3.6e-08 | 7%[11.4 µM] | i
CC1CN(c2oc(-c3ccco3)nc2S(=O)(=O)c2ccccc2)CC(C)O1 (stereo not drawn) | -2.0% | i | 1.7e-08 | 25µM* | i
COc1ccc(N2CCN(C(=O)c3ccc(CNc4c(N5CCOCC5)c(=O)c4=O)cc3)CC2)cc1 | -0.6% | nt | nt | -12% | nt
CC(C(=O)NCc1ccccc1)N1C(=O)C2CC=C(Cl)CC2C1=O (stereo not drawn) | -3.1% | i | 1.9e-08 | nt | i
CN(C)CCN1C(=O)C(O)=C(C(=O)c2ccco2)C1c1ccccc1F (stereo not drawn) | 1.4% | i | 4.9e-08 | 1% | i
COc1ccc(C2CC(c3cccc(C)c3)n3nc(N)nc3N2)cc1 (stereo not drawn) | -0.3% | nt | nt | 11% | nt
Cc1cc(/C=C\c2ccc3cc(N(C)C)ccc3[n+]2C)c(C)n1-c1ccccc1 | 2.9%[25.7 µM] | i | 4.3e-08 | -2%[25.6 µM] | i
COc1ccc(C(=O)NC(C(=O)NCc2ccccn2)C(C)C)cc1 (stereo not drawn) | 0.6% | i | 1.5e-08 | 29% | i
CO[C@]1(NC(=O)[C@H](C(=O)O)c2ccc(O)cc2)C(=O)N2C(C(=O)O)=C(CSc3nnnn3C)CO[C@H]21 | -1.8%[25.7 µM] | i | 2.5e-08 | -2%[25.6 µM] | i
CC1Cc2ccccc2N1C(=O)c1ccnc(C(C)(C)C)c1 (stereo not drawn) | -0.1% | i | 2.5e-08 | ? | i
CCC(C)NC(=O)C1CN(S(=O)(=O)c2ccccc2)CCN1S(=O)(=O)c1ccccc1 (stereo not drawn) | -0.2% | nt | nt | -1% | nt
Cc1cc(-c2ccco2)n(CC(=O)NCc2ccco2)n1 | 1.9% | nt | nt | 20% | nt
Cc1ccc(N2CC(C(=O)Nc3ccccn3)CC2=O)cc1 (stereo not drawn) | -1.8% | i | 1.6e-08 | 19% | i
CNc1oc(-c2ccc(Cl)cc2)nc1C#N | nt | i | 3.3e-09 | nt | i
Cc1ccc(OCc2nn3c(-c4ccco4)nnc3s2)cc1 | -1.8% | i | 1.2e-08 | ? | i
O=C(NC1CCCc2ccccc21)C1CCCO1 (stereo not drawn) | 1.0% | nt | nt | 22% | nt
COCCCN1C(=O)C(=O)/C(=C(/O)c2ccc3c(c2)OCCO3)C1c1ccc(C(=O)OC)cc1 (stereo not drawn) | 1.0% | i | 1.1e-09 | 3% | i
CCCNc1nc2c(c(=O)[nH]c(=O)n2C)n1CCCc1ccccc1 | -0.5% | i | 3.2e-08 | 4% | i
O=C(NCCN1CCCC1=O)Nc1ccccc1 | 0.6% | i | 6.7e-09 | ? | i
Cc1ccccc1Oc1ccc(S(=O)(=O)NCCC(=O)O)cc1 | 0.6% | i | 6.3e-09 | 4% | i
COc1cc(C(=O)Nc2ccc(NC(=O)c3ccco3)nc2)cc(OC)c1OC | 1.2% | i | 1e-09 | ? | i
Cn1cccc1C(=S)N=P(C1CCCCC1)(N1CCOCC1)N1CCOCC1 | 0.5% | i | 4.7e-09 | 0% | i
C=CCNc1ncnc2ccc(Br)cc12 | -0.5% | nt | nt | -1% | nt
COc1ccc(C(C)=O)cc1COC(=O)Cn1cnc2ccccc2c1=O | 2.3% | i | 1.7e-09 | -2% | i
CCOC(=O)Nc1nnc(-c2cccc(OC)c2)s1 | -1.3% | i | 1.6e-08 | -9% | i
COc1ccc(CN2C(=O)CN=C2Nc2ccc(C)cc2C)cc1 | 0.2% | i | 5.3e-08 | 11% | i
O=C(NC1CC1)c1cccc(Nc2ccc(-c3ccc4c(c3)OCCO4)nn2)c1 | -1.8% | i | 1.3e-08 | 8% | i
CCOc1ccccc1NC=C1C(=O)OC(C)(C)OC1=O | 2.7% | i | 4.3e-09 | 9% | i
COc1ccc(-c2cc3ccccc3n2CC(O)CN2CCOCC2)cc1 (stereo not drawn) | -2.1% | i | 3.1e-08 | -2% | i
CN(C)c1oc(COc2ccccc2F)nc1C#N | -2.0% | i | 1.7e-09 | 2% | i
Cc1ccccc1-c1nc(CS(=O)(=O)CC(=O)NCc2ccc3c(c2)OCO3)c(C)o1 | -1.5% | nt | nt | ? | nt
CC(=O)Oc1ccc(NC(=O)Cc2ccccc2)cc1 | 1.7% | i | 2.5e-09 | -7% | i
O=C(CSc1nnc2scc(-c3ccccc3)n12)Nc1nsc(-c2ccccc2)n1 | -0.5% | i | 1e-09 | 26% | i
CCN1C(=O)CC(n2c(C)nc3ccccc32)C1=O (stereo not drawn) | 0.8% | i | 1e-09 | -1% | i
COc1ccccc1N1CCN(C(c2ccc(F)cc2)c2nnnn2C(C)C)CC1 (stereo not drawn) | -1.6% | i | 1e-09 | ? | i
O=C(Nc1nsc(-c2ccccc2)n1)c1cccs1 | -1.0% | i | 1e-09 | 1%[11.4 µM] | i
O=C(CN1CCN(c2ccccn2)CC1)NC1CCCC1 | 0.5% | i | 1e-09 | 11% | i
O=C1CCCCC(=O)N(c2ccccc2)c2ccccc21 | 0.4% | nt | nt | 8% | nt
N#Cc1nc(-c2ccco2)oc1N1CCN(Cc2ccccc2)CC1 | 3.2% | i | 8e-09 | 24% | i
Nc1c(C2=NCCO2)nnn1Cc1ccccc1 | -0.2% | i | 7.1e-09 | -3% | i
CN(c1ccc(F)cc1)S(=O)(=O)c1ccc2[nH]cc(C(=O)O)c(=O)c2c1 | -1.5% | i | 8.6e-09 | -4%[11.4 µM] | i
Cc1[nH]c(=O)[nH]c(=O)c1CSc1nnc([C@H](CC(C)C)NC(=O)OC(C)(C)C)o1 | -0.5% | i | 1e-09 | -4% | i
N#Cc1nc(COc2ccccc2F)oc1NCCCn1ccnc1 | nt | i | 2.8e-08 | nt | i
CCC(=O)N1CCc2cc(S(=O)(=O)N3CCc4ccccc4C3)ccc21 | -1.1% | i | 2.1e-09 | 6% | i
CCc1nc(SCC(=O)c2cc(C)ccc2C)n[nH]1 | -2.6% | nt | nt | 4%[11.4 µM] | nt
COc1ccccc1N1CCN(CC(O)COc2cccc3ccccc23)CC1 (stereo not drawn) | nt | i | 1e-09 | nt | i
COc1cccc(-c2nc(NC(C)C)c3ccccc3n2)c1O | nt | i | 1e-09 | nt | i
COc1ccccc1-c1nc(C#N)c(N2CCN(c3cccc(Cl)c3)CC2)o1 | -0.9% | i | 1e-08 | ? | i
COc1ccccc1NS(=O)(=O)c1ccc(O)c(C(N)=O)c1 | 0.3% | i | 2.6e-08 | -3% | i
COc1cc(OC)c2c(C)cc(=O)oc2c1 | -0.2% | i | 3.7e-08 | 6% | i
CC1CN(C(=O)CN2C(=O)NC3(CCCCCCC3)C2=O)CC(C)O1 (stereo not drawn) | -2.3% | i | 1e-09 | 5% | i
O=C(O)c1cc2cc(F)ccc2[nH]1 | -3.8% | i | 3.1e-08&2.2e-08&1.3e-09 | ? | i
O=C(CCCOc1ccc(Cl)cc1Cl)N1CCN(c2ccccn2)CC1 | 1.1% | i | 3.5e-08 | ? | i
Cc1ccc(-n2nc3c(c2NC(=O)C(C)(C)C)CSC3)c(C)c1 | -1.4% | i | 1.4e-08 | ? | i
CCCCCCCCCC[Si](C)(C)CCC(=O)N[C@@H](Cc1ccc(C)cc1)c1ccccc1 | -1.3% | i | 2.4e-08 | 10% | i
COc1ccc(C2CC(c3ccc(Cl)cc3)n3nc(N)nc3N2)cc1 (stereo not drawn) | 1.8% | nt | nt | -1% | nt
Cc1nc2cc(N3CCCCC3)c(NC(=O)c3cccnc3)cc2c(=O)n1Cc1ccccc1 | 3.8% | i | 3e-09 | ? | i

(more compounds)
SMILES | AID923 | Resorufin fluor | A647 autofl | TSHR ag | A488 autofl
Cn1ccnc1SCC(=O)c1cc2ccccc2o1 | 1.9% | i | 1e-09 | 0% | i
FC(F)(F)c1ccccc1-c1ccc2ncnc(NC3CCNCC3)c2c1 | 0.7% | i | 2.5e-09 | 4% | i
Cn1cccc1C(=O)N1CCC[C@@]2(CCN(Cc3nccs3)C2)C1 | 0.8% | i | 1.8e-08 | 3% | i
COC(=O)[C@@H]1[C@H]2C[C@H]3c4[nH]c5cc(OC)ccc5c4CCN3C[C@@H]2C[C@@H](OC(=O)c2cc(OC)c(OC)c(OC)c2)[C@@H]1OC | nt | i | 1.3e-08&5.9e-09 | nt | i
O=S(=O)(c1ccc(OCC(O)CN2CCN(c3ccc(F)cc3)CC2)cc1)N1CCOCC1 (stereo not drawn) | -0.5% | i | 1e-09 | 16% | i
O=C(O)CCC1COc2ccccc2O1 (stereo not drawn) | 1.9% | i | 1.2e-08 | 4% | i
CC(=O)O[C@H]1CC[C@@]2(C)C(=CC[C@@H]3[C@@H]4CC[C@H](c5cc(C(F)(F)F)n(C(C)=O)n5)[C@]4(C)CC[C@@H]32)C1 | -1.7%[11.5 µM] | i | 2.5e-08 | 3%[11.4 µM] | i
O=C(COC(=O)C1CC2C=CC1C2)NCc1ccco1 (stereo not drawn) | 0.3% | i | 9.3e-09 | 0% | i
O=C(CSc1ncn[nH]1)Nc1nnc(-c2ccccc2)s1 | -1.2% | nt | nt | -1% | nt
COC(=O)CC1Oc2ccccc2N(Cc2ccccc2)C1=O (stereo not drawn) | 1.2% | nt | nt | ? | nt
CC(=NCc1cccnc1)C1=C(O)c2ccccc2C1=O | 0.4% | nt | nt | -15% | nt
CCCCCC1CC(CC#CCN2CCOCC2)C(=O)O1 (stereo not drawn) | nt | i | 1e-09 | nt | i
COc1ccc(CC(=O)NC2CCN(CC(=O)N3CCCc4ccccc43)CC2)cc1OC | 0.3% | i | 1.5e-09 | -6% | i
Cc1c(S(=O)(=O)Nc2cc(Cl)ccc2Cl)c(=O)n(C)c(=O)n1C | 2.4% | nt | nt | ? | nt
Cc1ccc(-c2noc(C3CCCN(C(=O)c4ccc(F)cc4F)C3)n2)cc1 (stereo not drawn) | -2.3% | i | 1.6e-08 | ? | i

Reformatted with tabs: seven of the compounds above
mol	AID923	Resorufin fluor	A647 autofl	TSHR ag	A488 autofl
O=S(=O)(c1ccc(OCC(O)CN2CCN(c3ccc(F)cc3)CC2)cc1)N1CCOCC1 (stereo not drawn)	-0.5%	i	1e-09	16%	i
O=C(O)CCC1COc2ccccc2O1 (stereo not drawn)	1.9%	i	1.2e-08	4%	i
CC(=O)O[C@H]1CC[C@@]2(C)C(=CC[C@@H]3[C@@H]4CC[C@H](c5cc(C(F)(F)F)n(C(C)=O)n5)[C@]4(C)CC[C@@H]32)C1	-1.7%[11.5 µM]	i	2.5e-08	3%[11.4 µM]	i
O=C(COC(=O)C1CC2C=CC1C2)NCc1ccco1 (stereo not drawn)	0.3%	i	9.3e-09	0%	i
O=C(CSc1ncn[nH]1)Nc1nnc(-c2ccccc2)s1	-1.2%	nt	nt	-1%	nt
COC(=O)CC1Oc2ccccc2N(Cc2ccccc2)C1=O (stereo not drawn)	1.2%	nt	nt	?	nt
CC(=NCc1cccnc1)C1=C(O)c2ccccc2C1=O	0.4%	nt	nt	-15%	nt

Screening results (PubChem BioAssay)
